Assay outcomes from PubChem.
Rango dissoc inh = prevents RanGTP from dissociating the Rango-importin beta complex | O95149+P62826 | Biochemical FRET Rango-importin beta, RanGTP-induced dissociation | Potency, µM (highest dose often 46.1 µM), without a hit: at the top dose activity change, negative = inhibition | actives 0.071% (n = 340,000); active means falling FRET ratio curve, often poorly fitted, with flat reads before Ran was added; inconclusive means other falling curves, or compound fluorescence or quenching; inactive means flat or rising ratio curve;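 note: potency is the fitted concentration of half-maximal effect; % of control where 0% means no effect; nearly all actives have a fitted effect of over 45% in size; -100% = wells without RanGTP and RCC1; the record marks most hits as doubtful in a second field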
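FRET read at 45 min, room temperature: inhibitors block the CFP/YFP signal rise when RanGTP (0.6 uM Ran, 2 mM GTP, 0.2 uM RCC1) frees Rango (0.1 uM) from importin beta (0.25 uM). Pre-read after 5 min compound exposure flags interference.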
miR-21 reporter = raises the signal of a miR-21 reporter | HeLa miR-21 FLuc reporter, luciferase, 48 h | Potency, µM (highest dose often 38.3 µM), without a hit: at the highest dose reporter change, positive = more light | 340,000 tested, under 10 active | AID 2288; active = well fitted rising curve with a large enough effect; inconclusive = small, poorly fitted or top-dose-only effect; inactive = no such curve, though single readings can be large or run the other way;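 note: % of control where 0% means no effect; miR-21 action dims this reporter so a rising signal means less miR-21 action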
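HeLa miR-21-FLuc reporter line, endogenous miR-21; 2000 cells/well in DMEM/10% FBS; compound titration up to ~40uM final, 48 h, 37 degree Celsius; luciferase detection reagent, 15 min lysis, CCD luminescence.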
GLA inh pH 4.5 = alpha-galactosidase A (human) inhibition, pH 4.5; P06280; purified enzyme, 4-MU-alpha-Gal fluorescence, pH 4.5; activity change, negative = inhibition, % at 105 µM; 230,000 tested, under 10 active; inconclusive = small, poorly fitted or top-dose-only inhibition, or a rising curve; inactive = flat fitted curve, though single readings scatter; no compound was filed as active;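 note: 0% = full activity with enzyme and -100% = basal without enzyme; dose as in the result columns while the protocol names 77 µM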
Target sequence (P06280 whole entry, looked up): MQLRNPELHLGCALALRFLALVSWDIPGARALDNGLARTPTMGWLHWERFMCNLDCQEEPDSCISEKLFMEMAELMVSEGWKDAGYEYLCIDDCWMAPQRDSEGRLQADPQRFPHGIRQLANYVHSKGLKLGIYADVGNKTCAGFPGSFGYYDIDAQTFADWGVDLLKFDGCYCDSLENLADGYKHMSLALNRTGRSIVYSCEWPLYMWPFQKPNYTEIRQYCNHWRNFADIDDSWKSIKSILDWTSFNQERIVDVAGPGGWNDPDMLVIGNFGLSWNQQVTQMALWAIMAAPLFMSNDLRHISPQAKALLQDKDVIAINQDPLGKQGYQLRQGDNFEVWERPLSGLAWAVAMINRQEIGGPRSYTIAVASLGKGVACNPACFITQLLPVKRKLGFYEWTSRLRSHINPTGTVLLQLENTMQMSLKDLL
Rango complex inh = prevents formation of the Rango-importin beta complex; Q14974; actives 0.031% (n = 340,000); Potency, µM (titrated, usually from 92.2 µM), for the others: top-dose inhibition of complex formation; Rango CFP/YFP FRET sensor + importin beta, 45 min; active = rising FRET ratio curve, often small or poorly fitted; inconclusive = mostly compound fluorescence or quenching in the first reads; inactive = flat curves in all reads;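 note: potency is the fitted concentration of half-maximal effect; 0% = DMSO wells and 100% = buffer wells lacking importin beta; nearly all actives have a fitted effect of over 15% in size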
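FRET biosensor (snurportin 1 IBB flanked by EYFP and cerulean), 50 nM, with compound 5 min, then 0.125 microM importin beta in PBS, 1 mM DTT, 0.02% Tween-20, 0.1% BSA. CFP/YFP ratio read after 45 min at room temperature; pre-read flags interference.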
* hit, by the source's call; ? = inconclusive; · = no result given; & = joins results of further samples; [ ] = another dose, or the depositor's remark. A portion of the library. The share of hits here may be higher or lower than overall.

SMILES	Rango dissoc inh	miR-21 reporter	GLA inh pH 4.5	Rango complex inh
Cc1ccc(NC(=O)C2CC(=O)n3ncnc3N2)cc1 (stereo not drawn)	-5%	-1%	3	-0.2%
CCCS(=O)(=O)c1nc(S(=O)(=O)c2ccc(C)cc2)c(NCCCN(C)C)s1	?	-6%	1	?
O=C(COC(=O)c1ccccn1)Nc1cccc(Cl)c1	24%	-3%	-9	-5.0%
Cc1nn(-c2ccccc2)c(Cl)c1/C=C1\SC(=S)N(CCCCCC(=O)O)C1=O	-6%	11%	-6	-1.1%
CCS(=O)(=O)c1ccc2c(c1)NC(=O)C(CCO)O2 (stereo not drawn)	13%	0%	-24	5.4%
Cc1cc(-n2c(C)cc(C(=O)CSc3nnnn3-c3ccc(Cl)cc3)c2C)no1	-13%	-2%	1	0.1%
CCOC(=O)C1CCN(C/C=C/c2ccccc2[N+](=O)[O-])CC1	-15%	0%	·	4.6%
O=C1CN(C(=O)COC(=O)/C=C/c2ccco2)c2ccccc2N1	17%	-2%	-2	-1.0%
COc1ccc(C(C(=O)NC2CCCC2)N(CC2CCCO2)C(=O)Cn2nnc(-c3ccc(C)o3)n2)cc1 (stereo not drawn)	0%	-7%	?	0.2%
COc1ccc(N(C(=O)c2ccco2)C(C(=O)NC2CCCC2)c2cccnc2)c(OC)c1 (stereo not drawn)	-7%	-3%	·	-3.4%
Cc1ccccc1C(=O)NNC(=O)CSc1nc(-c2ccccc2)cc(=O)[nH]1	-12%	-1%	-2	0.6%
COc1cc([N+](=O)[O-])cc(/C=N/NC(=O)CC#N)c1O	·	1%	-6	·
O=C(O)CSCC(=O)c1ccccc1	-3%	-3%	-2	-1.4%
Cc1cc(/C=C(\C#N)C(=O)O)c(C)n1C1CC1	-4%	-15%	-3	4.8%
CCSc1nnc(NC(=O)CSc2nc3c(c(=O)n2-c2ccccc2OC)SCC3)s1	10%	-9%	-8	-3.8%
OC(COc1ccc2ccccc2c1)CN1CCN(c2ccc(F)cc2)CC1 (stereo not drawn)	-7%	-1%	-9	-3.7%
COc1ccc2oc(C)c(C(=O)c3ccccc3)c2c1	5%	·	·	-0.8%
COc1cc(/C=N/N=C2/NC(=O)C(CC(=O)O)S2)ccc1OCc1ccc(Cl)cc1 (stereo not drawn)	47%	-59%	-4	2.9%
COC(=O)c1ccccc1NC(=O)CN1CCOCC1	-9%	-6%	13	-3.3%
COC(=O)C1CCN(C(=O)c2c(-c3ccccc3Cl)noc2C)CC1	-8%	-6%	-1	4.0%

Limited to Rango dissoc inh (2 entries from above):
molecule | Rango dissoc inh
CCS(=O)(=O)c1ccc2c(c1)NC(=O)C(CCO)O2 (stereo not drawn) | 13%
Cc1cc(-n2c(C)cc(C(=O)CSc3nnnn3-c3ccc(Cl)cc3)c2C)no1 | -13%

(more compounds)
SMILES	Rango dissoc inh	miR-21 reporter	GLA inh pH 4.5	Rango complex inh
Cc1ccccc1N1C(=O)CC(Sc2nnc(-c3ccccc3)o2)C1=O (stereo not drawn)	-14%	?	3	-3.2%
COc1ccc(OC)c(-c2c3cc(O)c(=O)cc-3oc3cc(O)c(O)cc23)c1	?	22%	-18	·
CC[C@]1(C(=O)OC)[C@H]2C(=O)N(Cc3ccccc3)C(=O)[C@H]2[C@H]2CN=C(SC)N21	0%	·	·	4.2%
CCOc1ccc(NC(=O)CN2CCCC2c2cccs2)cc1S(=O)(=O)N1CCCCC1 (stereo not drawn)	-5%	·	·	-3.9%
O=C(Nc1ccc([N+](=O)[O-])cc1)Nc1ccc2c(c1)OCCO2	-19%	-13%	6	0.3%
CCN(c1cccc(C)c1)S(=O)(=O)c1ccc2c3c(cccc13)C(=O)N2	-21%	-2%	-16	-7.6%
O=[N+]([O-])c1ccccc1CN1CCN(S(=O)(=O)Cc2ccccc2)CC1	-7%	1%	·	0.7%
NS(=O)(=O)c1cc2c(cc1Cl)NC=NS2(=O)=O	-10%	-4%	2&1&-7&-4	3.6%
O=C(CN(c1ccc2c(c1)OCCO2)S(=O)(=O)c1ccccc1)N1CCN(Cc2ccccc2)CC1	0%	0%	-12	-2.8%
COc1cc(Cl)c(S(=O)(=O)N2CCCC2)cc1Cl	19%	4%	8	0.9%
O=C(Nc1ccc2c(c1)OCO2)c1c(F)c(F)c(F)c(F)c1F	34%	-13%	-8	-0.2%
COc1ccc(C(O)P(=O)(OCC(C)C)OCC(C)C)c(OC)c1 (stereo not drawn)	4%	-5%	5	0.8%
CCOC(=O)c1ccoc1CSCc1ccc(C(=O)OC)o1	-10%	-32%	-6	?
CS(=O)(=O)N1CCN(c2ccc(NC(=S)NC(=O)c3cccs3)cc2)CC1	14%	-18%	2	7.0%
COc1ccc(CN(C)C(=O)/C=C/c2ccc(S(=O)(=O)N3CCCCCC3)cc2)cc1	9%	·	·	-1.5%
O=c1[nH]c(NCc2ccccc2)nc2c1CCCC2	1%	-1%	5	6.2%
Cc1n[nH]c(C)c1CCCCOc1ccccc1F	-6%	-4%	·	6.1%
CCc1cccc(NC(=S)Nc2ccc(CN3CCOCC3)cc2)c1	10%	0%	0[21.1 µM]	?
CC(=O)Nc1ccc(C(=O)COC(=O)c2c(C)noc2C)c(F)c1	1%	·	·	-0.2%
Cc1ccc(S(=O)(=O)N2CC(O)C[C@H]2C(=O)OCC(=O)Nc2ccc(N3CCCCC3)cc2)cc1C (stereo partly drawn)	1%	·	·	1.3%

Sorted by the number under Rango complex inh (high to low): 6 of the compounds above
SMILES	Rango dissoc inh	miR-21 reporter	GLA inh pH 4.5	Rango complex inh
Cc1cc(/C=C(\C#N)C(=O)O)c(C)n1C1CC1	-4%	-15%	-3	4.8%
NS(=O)(=O)c1cc2c(cc1Cl)NC=NS2(=O)=O	-10%	-4%	2&1&-7&-4	3.6%
COc1cc(/C=N/N=C2/NC(=O)C(CC(=O)O)S2)ccc1OCc1ccc(Cl)cc1 (stereo not drawn)	47%	-59%	-4	2.9%
Cc1ccccc1C(=O)NNC(=O)CSc1nc(-c2ccccc2)cc(=O)[nH]1	-12%	-1%	-2	0.6%
O=C(O)CSCC(=O)c1ccccc1	-3%	-3%	-2	-1.4%
COc1ccc(CN(C)C(=O)/C=C/c2ccc(S(=O)(=O)N3CCCCCC3)cc2)cc1	9%	·	·	-1.5%

Grouped by structure: those above containing a furan ring, fused or not.
SMILES	Rango dissoc inh	miR-21 reporter	GLA inh pH 4.5	Rango complex inh
O=C1CN(C(=O)COC(=O)/C=C/c2ccco2)c2ccccc2N1	17%	-2%	-2	-1.0%
COc1ccc(C(C(=O)NC2CCCC2)N(CC2CCCO2)C(=O)Cn2nnc(-c3ccc(C)o3)n2)cc1 (stereo not drawn)	0%	-7%	?	0.2%
COc1ccc(N(C(=O)c2ccco2)C(C(=O)NC2CCCC2)c2cccnc2)c(OC)c1 (stereo not drawn)	-7%	-3%	·	-3.4%
COc1ccc2oc(C)c(C(=O)c3ccccc3)c2c1	5%	·	·	-0.8%
CCOC(=O)c1ccoc1CSCc1ccc(C(=O)OC)o1	-10%	-32%	-6	?

The list continues:
SMILES	Rango dissoc inh	miR-21 reporter	GLA inh pH 4.5	Rango complex inh
O=C(Nc1ccc(F)cc1)N1CCC(c2nc3c(nnn3Cc3ccccc3Cl)c(=O)[nH]2)CC1	12%	7%	-9	5.5%
C=CCN1C(=O)c2cccc3c(N4CCCCC4)ccc(c23)C1=O	?	1%	-1	?
CC(C)(CO)NC(=O)C(Cc1ccccc1)N1C(=O)c2ccccc2C1=O (stereo not drawn)	1%	0%	·	-0.8%
CCCCNc1c(-c2ccc(OC)c(SC(C)CC)c2)nc2ccc(Cl)cn12 (stereo not drawn)	?	·	·	?
N#Cc1cnn2ccc(-c3ccc4c(c3)CCC4)nc12	?	-35%	17	?
c1ccc(N2CC[N+]3(CCCC3)CC2)nc1	10%	-1%	7	0.1%
CCOC(=O)c1c(C)c(C(=O)NCc2cccnc2)c(C)n1C	-7%	-2%	2	0.1%
C=CCn1c(-c2ccccc2)c[nH]c1=S	-6%	-34%	-1	-3.8%
Cc1sc2ncnc(SCC#N)c2c1C	-12%	-13%	-1	?
COc1ccc(CCNC(=O)C2CC2)cc1OC	3%	-4%	-2	-3.1%
COc1ccc(Oc2ccc(-c3ccn[nH]3)cc2)cc1	-10%	-42%	1	-1.4%
CCCCn1c(N)c(N(CC(C)C)C(=O)c2ccc(Cl)c(S(=O)(=O)N3CCCC3)c2)c(=O)[nH]c1=O	-3%	·	·	?
COc1ccc(Cc2c3cc(OC)c(OC)cc3cc[n+]2C)cc1OC	20%	3%	-2	0.7%
O=C(Nc1ccccn1)c1cc(-c2cccc(Cl)c2)nc2ccccc12	0%	14%	-4	0.7%
Cn1nnnc1SCC(=O)N1CCN(S(=O)(=O)c2ccc(Cl)cc2)CC1	-15%	-1%	3	-0.1%
Cc1ccc(S(=O)(=O)NCCC(=O)OCC(=O)N2CCCC2=O)cc1C	-10%	·	·	-3.7%
Cc1ccc(NC(=O)CCCNC(=O)c2ccc(Cl)cc2)c(Br)c1	-6%	1%	·	-1.1%
Cc1cccc(OCC(O)CN2C(C)(C)CC(O)CC2(C)C)c1C (stereo not drawn)	19%	-8%	-12	-3.1%
CCN(CC)S(=O)(=O)c1ccc(N(C)CCc2ccc(OC)c(OC)c2)nc1	-2%	-6%	-8	0.2%
O=C(c1ccccc1F)N1CCN(c2ccc([N+](=O)[O-])cc2-n2cccc2)CC1	10%	3%	-10	?
O=C(Nc1ccn(Cc2ccccc2)n1)c1cccc(Cn2cc([N+](=O)[O-])cn2)c1	2%	-12%	1	2.6%
COc1ccc2c(c1)cc(C(O)c1ccccn1)n2S(=O)(=O)c1ccccc1 (stereo not drawn)	-1%	-28%	3	-2.5%
Cc1ccc(N/C(=C\C(=O)c2ccccc2)C(=O)O)cc1	-14%	-56%	-8	?
Cc1cc([N+](=O)[O-])c(NCCCCCCO)c([N+](=O)[O-])c1	1%	·	·	-2.5%
O=C1CN(C(=O)c2cc(F)cc(F)c2)c2ccccc2N1	-7%	17%	·	3.3%
Cc1ccnc(NS(=O)(=O)c2ccc(NC(=O)/C=C/c3cccs3)cc2)n1	-3%	-16%	-4	-0.2%
Cc1cc(C(=O)Nc2ccccc2)oc(=O)c1	3%	-65%	-14	2.2%
Clc1ccccc1-c1nnc2sc(C3COc4ccccc4O3)nn12 (stereo not drawn)	15%	-13%	-6	0.6%
O=C(C1CCN(S(=O)(=O)c2cccs2)CC1)N1CCCC(C(F)(F)F)C1 (stereo not drawn)	5%	-1%	·	0.7%
CCc1cccc(C)c1NC(=O)CSc1nnc(-c2cc3cc(Br)ccc3o2)n1CC	0%	-4%	0	4.1%
CCN(c1ccccc1)S(=O)(=O)c1cc(OC)ccc1OC	12%	-2%	4	-1.7%
